# T cruzi repl: blocks replication of Trypanosoma cruzi; AID 1885; T. cruzi beta-gal in NIH3T3, luminescence, 90 h; 300,000 tested, 1.4% active; inhibition, % (no concentration beside the values);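 active = mean inhibition across valid replicates above about 55%, limit read from the data; inconclusive = mean below that limit but half or more replicates reach it; inactive = mean below it, under half of replicates reach it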;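 note: signal also drops with host cell toxicity which is not excluded here; 0% = plate median of DMSO wells and 100% = zero luminescence signal; higher percent means less beta-gal luminescence so fewer parasites; stock transfer was 50 nL into about 50 µL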
# AF4-AF9 inh: inhibitors of human MLL-AF4/AF9 interaction; AID 651704; inhibition, % at 10 µM; 350,000 tested, 0.47% active; AlphaScreen, biotin-AF4 peptide binding to FLAG-AF9;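 active = every replicate reaching a set inhibition limit, whatever the replicate mean, cut at about 25% in these data; inconclusive = mean inhibition reaches that limit but some replicates miss it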;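 note: 0% = plate neutral control median and 100% = total signal loss; the record names both 10 and 1 µM as test concentration; the first replicate is given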
# A1 inh: inhibitors of the anti-apoptotic protein A1, read as caspase activation | 330,000 tested, 0.066% active | AID 2462 | caspase activation, % (concentration not given with the values) | MEF A1-2A-BIM cells, Caspase-Glo 3/7 luminescence, 3 h; percent of clofoctol response, vehicle zero;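 active = over half of replicate activation scores above 10%, or exactly half above 10 with the replicate mean above 10; inconclusive = replicate mean below 10 yet half the replicates above 10; inactive = over half of replicates below 10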;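 note: wells of about 30 µL received 50 nL stock; many hits fall short of the cut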
# LANA-H2A inh: blocks KSHV LANA binding to histone H2A/H2B. Q9QR71. cell-free LANA-H2A/H2B peptide, fluorescence polarization. inhibition, % (concentration not given with the values). 320,000 tested, 0.6% active; in the data active = inhibition mostly above about 10%, no sharp cut-off; inactive = mostly below about 6.7%;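 note: stock transfer was 7.5 nL into about 10 µL; 0% = median of vehicle wells and 100% = median of positive control wells; one replicate is shown; the record names a cut of 25% in any replicate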
# Target sequence (Q9QR71 whole entry, looked up): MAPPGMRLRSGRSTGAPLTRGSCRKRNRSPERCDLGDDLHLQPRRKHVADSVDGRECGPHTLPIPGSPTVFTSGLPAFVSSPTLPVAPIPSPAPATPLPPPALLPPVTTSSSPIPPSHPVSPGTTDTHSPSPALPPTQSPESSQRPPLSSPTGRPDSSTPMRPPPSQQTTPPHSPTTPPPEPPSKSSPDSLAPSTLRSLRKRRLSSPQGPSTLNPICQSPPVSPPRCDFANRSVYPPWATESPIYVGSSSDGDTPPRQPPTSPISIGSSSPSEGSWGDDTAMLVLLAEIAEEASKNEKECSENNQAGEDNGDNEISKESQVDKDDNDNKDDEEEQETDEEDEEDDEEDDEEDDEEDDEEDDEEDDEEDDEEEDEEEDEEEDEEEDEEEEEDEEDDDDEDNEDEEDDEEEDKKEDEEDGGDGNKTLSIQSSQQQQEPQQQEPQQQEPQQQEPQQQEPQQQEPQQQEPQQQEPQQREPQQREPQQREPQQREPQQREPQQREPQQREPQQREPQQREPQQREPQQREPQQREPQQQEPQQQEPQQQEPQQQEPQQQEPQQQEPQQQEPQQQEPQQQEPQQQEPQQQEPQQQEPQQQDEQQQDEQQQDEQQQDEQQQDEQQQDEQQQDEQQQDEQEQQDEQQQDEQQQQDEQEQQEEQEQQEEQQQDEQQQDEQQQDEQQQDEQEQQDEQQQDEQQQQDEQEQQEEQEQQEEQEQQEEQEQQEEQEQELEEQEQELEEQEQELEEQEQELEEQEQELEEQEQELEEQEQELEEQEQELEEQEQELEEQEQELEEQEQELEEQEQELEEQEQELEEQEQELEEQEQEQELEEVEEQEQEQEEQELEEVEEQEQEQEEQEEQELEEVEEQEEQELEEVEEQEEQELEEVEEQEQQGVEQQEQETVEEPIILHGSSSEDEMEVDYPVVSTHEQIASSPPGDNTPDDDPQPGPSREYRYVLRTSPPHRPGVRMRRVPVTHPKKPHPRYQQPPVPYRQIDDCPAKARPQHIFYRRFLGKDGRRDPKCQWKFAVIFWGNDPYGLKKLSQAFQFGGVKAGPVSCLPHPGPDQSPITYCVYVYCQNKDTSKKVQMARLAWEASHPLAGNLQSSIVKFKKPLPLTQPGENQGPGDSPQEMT
# Beta apoptosis: blocks beta cell apoptosis | INS-1E cytokine-induced death, ATP luminescence, 48 h; percent of positive-control rescue, neutral wells zero | protection from apoptosis, % (concentration not given with the values) | 300,000 tested, 0.8% active | AID 435005;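 active = all replicates at 75% or more, or half of them and the mean; inconclusive = half reach 75% but not the mean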;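 note: 0% = cytokine-treated negative control wells and 100% = positive control rescue; higher means more ATP so stronger rescue from cytokine killing; wells of about 40 µL received 100 nL stock; the first replicate is given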
# Calb FLC: C. albicans growth modulation with fluconazole | C. albicans CaCi-2 (fluconazole-resistant clinical isolate) + fluconazole, Alamar Blue growth, 48 h | AID 1979 | growth inhibition, % (test concentration not listed) | 300,000 tested, 0.57% active;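 active = most replicates above 75%; inconclusive = exactly half above 75%; inactive = most below 75%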;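 note: all wells also contain fluconazole at 8 µg/ml as a sub-toxic cotreatment; 0% = median of DMSO wells and 100% = median of geldanamycin control wells; wells of about 8 µL received 7.5 nL stock; the first replicate is given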
# Vif TR-FRET: inhibitors of Vif binding to APOBEC3G peptide, primary screen, biochemical, TR-FRET, GST-Vif 1-94, biotin-A3G peptide, dose response retest (AID 1117319); TR-FRET GST-Vif / biotin-A3G peptide binding; higher % means a stronger effect; test concentration not given here; strong numbers were not always called active; inhibition, %, or IC50 in µM where a hit was titrated; 260,000 tested, 0.57% active;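 active = above the screen mean plus three standard deviations and confirmed in dose response; inconclusive = results disagree or hit not tested in dose response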;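 note: Vif residues 1-94 fused to GST binding biotinylated APOBEC3G peptide 110-148; 0% = full assay without inhibitor and 100% = GST in place of GST-Vif; retest series ran down from 100 µM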
# RanGTP-Impb inh: disruptors of Ran-importin-beta complex formation – biochemical, FRET, CFP-Ran, YFP-importin-beta, homogeneous, primary screen. cell-free CFP-Ran/YFP-importin-beta FRET ratio. inhibition, % (no concentration beside the values). 300,000 tested, 1.1% active;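 active = most replicates above 15%; inconclusive = exactly half above 15%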;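 note: 0% = DMSO wells and 100% = Ran loaded with GDP instead of GTP; wells of about 40 µL received 100 nL stock; the first replicate is given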
# The depositor's hits bear a star; ? = inconclusive; · = no result given; & = joins results of further samples.
SMILES,T cruzi repl,AF4-AF9 inh,A1 inh,LANA-H2A inh,Beta apoptosis,Calb FLC,Vif TR-FRET,RanGTP-Impb inh
O=C(CSc1nnc2c(n1)[nH]c1ccc(F)cc12)OCc1ccccc1,1.0,·,-0.3,1.2,0.3,2.8,-3.9%,-0.7
COc1ccc(/C=N/NC(=O)c2[nH]c3ccc(C)cc3c2-c2ccccc2)c(C(=O)O)c1OC,-2.3,1.1,0.1,3.1,-3.9,4.8,·,?
CCCCc1nnc(SCc2ccc(OCC)cc2)n1N,-1.1,·,1.6,1.5,-1.0,-13.1,2.1%,-1.5
O=C(NCC(=O)N(Cc1cccs1)C(C(=O)NC1CCCCC1)c1ccco1)c1cccs1 (stereo not drawn),5.2,·,0.8,-5.3,2.0,?,3.8%,-0.7
O=C(CN1C(=O)S/C(=C/c2cc(Br)cs2)C1=O)N1CCOCC1,7.0,·,-1.1,-4.0,-4.8,4.3,·,-1.7
O=C(Nc1ccccc1)c1ccc(OC(=O)c2ccccc2)cc1,4.3,0.4,-7.9,-4.1,·,-3.7,-1.6%,?
CCCc1nc(SC2CCCC2)c2c(=O)n(C)c(=O)n(C)c2n1,35.5,-8.6,-0.1,-1.0,2.1,-2.6,-9.2%,-3.9
Cc1ccc(C(=O)OCC(=O)NNC(=O)c2cccs2)c(O)c1,-14.0,-0.3,?,0.1,-4.8,·,-5.3%,2.0
Cc1ccc(S(=O)(=O)n2cccc2C)cc1,-4.6,-0.8,0.8,-2.2,0.9,11.7,·,2.0
COc1ccc(C(=O)OCC(=O)NC(=O)NC2CCCC2)c(O)c1,-15.6,-2.7,0.6,-1.1,-7.0,-4.7,·,4.6
CCCn1nnnc1NCc1ccc(Cl)cc1Cl,-9.7,-0.6,0.0,3.9,5.3,1.2,25.0%,-5.3
Cc1ccc(-c2csc(C3=C(O)CN(NC(=O)c4ccc([N+](=O)[O-])cc4)C3=N)n2)cc1,-16.6,0.0,-0.5,1.0,-1.5,5.0,5.9%,0.1
O=C1c2oc3ccccc3c(=O)c2C(c2cccc(O)c2)N1CCCN1CCOCC1 (stereo not drawn),-4.2,-1.5,0.6,-5.3,-9.8,-16.7,17.2%,?
CCCc1nnc(NC(=O)CCC(=O)Nc2ccc(Cl)cc2)s1,-16.4,0.1,-0.5,2.2,-3.1,20.7,·,2.3
CC(C)CCNC(=O)c1ccc2c(SCC(=O)O)c3c(nc2c1)CCC3,0.8,-13.6,2.2,3.2,0.3,0.9,59.8µM*,?

# A draw from above in order of number of heavy atoms, high to low.
SMILES,T cruzi repl,AF4-AF9 inh,A1 inh,LANA-H2A inh,Beta apoptosis,Calb FLC,Vif TR-FRET,RanGTP-Impb inh
COc1ccc(/C=N/NC(=O)c2[nH]c3ccc(C)cc3c2-c2ccccc2)c(C(=O)O)c1OC,-2.3,1.1,0.1,3.1,-3.9,4.8,·,?
O=C1c2oc3ccccc3c(=O)c2C(c2cccc(O)c2)N1CCCN1CCOCC1 (stereo not drawn),-4.2,-1.5,0.6,-5.3,-9.8,-16.7,17.2%,?
O=C(CN1C(=O)S/C(=C/c2cc(Br)cs2)C1=O)N1CCOCC1,7.0,·,-1.1,-4.0,-4.8,4.3,·,-1.7

# The listing picks up; the 3 compounds before the break are reprinted first.
SMILES,T cruzi repl,AF4-AF9 inh,A1 inh,LANA-H2A inh,Beta apoptosis,Calb FLC,Vif TR-FRET,RanGTP-Impb inh
O=C1c2oc3ccccc3c(=O)c2C(c2cccc(O)c2)N1CCCN1CCOCC1 (stereo not drawn),-4.2,-1.5,0.6,-5.3,-9.8,-16.7,17.2%,?
CCCc1nnc(NC(=O)CCC(=O)Nc2ccc(Cl)cc2)s1,-16.4,0.1,-0.5,2.2,-3.1,20.7,·,2.3
CC(C)CCNC(=O)c1ccc2c(SCC(=O)O)c3c(nc2c1)CCC3,0.8,-13.6,2.2,3.2,0.3,0.9,59.8µM*,?
CC(=O)c1ccc(Nc2ccc([N+](=O)[O-])c3nonc23)cc1,-8.5,-6.1,-2.3,5.9,48.7,65.8,-7.6%,-5.0
Cc1ccc(S(=O)(=O)N2CCOCC2)cc1C(=O)NCc1ccccc1CN1CCCC1,·,1.3,0.6,2.7,6.8,·,-8.9%,·
Cn1c(=O)c2c(nc(Sc3nc4ccccc4n3CC(=O)N3CCCCC3)n2C)n(C)c1=O,-6.3,·,0.6,5.0,6.0,-5.0,-7.2%&6.3%,2.9
O=C(O)CN(c1ccccc1)S(=O)(=O)c1cc(C(F)(F)F)cc(C(F)(F)F)c1,4.2,-1.7,0.1,12.5,2.0,4.0,0.9%,5.8
O=C(NCc1ccccc1C(F)(F)F)C1CC(O)CN1C(=O)Nc1ccccc1 (stereo not drawn),3.1,-2.8,0.9,1.2,-6.2,5.4,-2.9%,4.6
CN(C)Cc1ccc(F)cc1Sc1ccc(Cl)cc1Cl,-5.4,·,0.2,-1.4,-2.0,1.6,·,0.8
O=C1/C(=C\c2cc(Cl)c(O)c(Cl)c2)SC(=S)N1Cc1ccccc1,2.9,3.4,-0.1,-17.1,8.6,10.4,11.4%,-89.6
O=C(Cn1cc2c(n1)CCCC2)N1CCc2ccccc21,-3.5,-6.4,0.7,-0.7,-6.4,-8.6,-1.1%,-0.2
COc1ccc(-c2nn(-c3ccccc3)cc2C(=O)n2nnc3ccccc32)cc1,1.0,·,0.4,2.7,3.5,6.0,2.4%,-3.5
O=C1OCc2ccc(NC(=O)c3sccc3Cl)cc21,7.4,-12.3,1.2,-3.8,0.9,-3.8,-2.2%,4.5
COc1ccc(C(=O)NCc2nc3ccccc3[nH]2)cc1OC,8.2,-10.3,0.8,0.2,-0.1,-0.8,-0.7%,-0.9
CCC(=O)Nc1ccc(OCc2nc3ccccc3s2)cc1,8.8,-2.1,-7.6,3.9,3.7,0.3,·,-0.7
O=C(NC1CCCCC1)NC1C2CC3CC(C2)CC1C3 (stereo not drawn),-4.1,-2.2,0.1,0.1,1.4,-13.7,-1.4%,-3.8
COC(=O)c1cc2c(=O)c3ccccc3oc2nc1C,-15.9,2.2,-7.9,3.1,0.0,12.3,-36.5%,-2.8
CCOc1ccc(CCn2c(-c3ccco3)nc3ccccc3c2=O)cc1OCC,14.6,-11.7,-1.4,10.8*,-2.2,40.8,2.2%,-2.6

# Gathered by group, those above with a COOH group.
SMILES,T cruzi repl,AF4-AF9 inh,A1 inh,LANA-H2A inh,Beta apoptosis,Calb FLC,Vif TR-FRET,RanGTP-Impb inh
COc1ccc(/C=N/NC(=O)c2[nH]c3ccc(C)cc3c2-c2ccccc2)c(C(=O)O)c1OC,-2.3,1.1,0.1,3.1,-3.9,4.8,·,?
CC(C)CCNC(=O)c1ccc2c(SCC(=O)O)c3c(nc2c1)CCC3,0.8,-13.6,2.2,3.2,0.3,0.9,59.8µM*,?
O=C(O)CN(c1ccccc1)S(=O)(=O)c1cc(C(F)(F)F)cc(C(F)(F)F)c1,4.2,-1.7,0.1,12.5,2.0,4.0,0.9%,5.8

# Further structures.
SMILES,T cruzi repl,AF4-AF9 inh,A1 inh,LANA-H2A inh,Beta apoptosis,Calb FLC,Vif TR-FRET,RanGTP-Impb inh
Cc1ccc2oc(C(=O)N(Cc3nccn3C)C(C)C)c(C)c2c1,-11.7,-6.3,0.3,-0.1,-13.7,-1.9,·,?
CCOC(=O)/C(=N\Nc1ccc(Br)cc1)N1CC(C)OC(C)C1 (stereo not drawn),-2.3,·,-0.1,-1.1,5.1,-9.4,·,2.7
CC1CCN(C(=O)COC(=O)/C=C/c2ccco2)CC1,·,-1.5,-0.8,0.6,-4.6,·,·,·
COc1cccc(C(=O)Nc2ccc(S(=O)(=O)Nc3nccc(C)n3)cc2)c1,-8.5,-19.4,0.2,5.6,-7.5,-12.0,-8.5%,-2.5
COc1cc(C(=O)Nc2nc(C)cc(C)n2)cc(OC)c1OC,-4.3,-1.9,-0.9,-1.9,5.2,-1.8,·,0.6
CCCCc1ccc(NC(=O)OC)cc1,-0.7,·,0.1,-1.4,-3.3,-5.4,0.0%,-2.0
CC1CN(CC(=O)Nc2cc(S(=O)(=O)N3CCCC3)ccc2Cl)CC(C)O1 (stereo not drawn),15.5,2.8,0.9,-9.6,5.4,7.1,·,2.3
O=C(NCCC1=CCCCC1)c1cc(S(=O)(=O)N2CCCCC2)ccc1Cl,17.8,-3.7,-0.5,3.4,3.0,-4.3,0.8%,0.7
CCCCn1nnnc1SCC(=O)NCc1ccco1,-2.3,·,0.3,-2.3,-9.8,-3.9,0.1%,0.4
CCN(CC)S(=O)(=O)c1ccc(NC(=O)c2cc(C(=O)OC)cc([N+](=O)[O-])c2)cc1,?,0.3,-0.6,8.0,8.0,14.8,·,0.0
O=[N+]([O-])c1ccc(N2CCOCC2)nc1,1.6,·,0.9,0.3,-8.0,-7.9,-3.7%,3.3
COCOc1ccc(C=O)c(OCOC)c1,-14.4,-2.0,0.9,0.1,-6.6,-6.1,·,?
CCOC(=O)C1=C(C)N=C2SCCC(=O)N2C1c1sccc1C (stereo not drawn),4.0,·,-0.2,-1.4,10.2,-0.8,-0.8%,6.2
NC(=O)C1CCN(C(=O)COCc2cc(-c3ccc4c(c3)OCO4)on2)CC1,-14.3,-5.5,-0.5,-0.2,-4.5,20.7,-2.4%,3.2
C=CCNC(=S)N/N=C/c1ccc(-c2ccc(Cl)cc2Cl)o1,59.9*,·,-0.4,-3.2,21.6,20.5,·,-0.2
Cc1cc(C(=O)N(C)CC(=O)Nc2ccc(F)c(F)c2F)no1,-10.2,0.7,-0.2,-5.9,-3.9,?,-5.5%,2.0
CSc1nnc(COc2ccc(C)cc2)n1N,0.3,·,0.8,-1.7,0.3,?,29.7%,?
Cn1c(-n2c(-c3ccco3)nc3ccccc3c2=O)nc2ccccc21,-1.9,·,-0.9,0.1,3.7,22.0,-0.9%,1.2
Cc1cc(NC(=O)CSc2nc3ccccc3n2CC(=O)N2CCC(C)CC2)no1,4.9,·,1.3,-0.7,1.7,-4.9,3.6%,-0.7
Cc1ccc(C2(c3ccccc3)NC(=O)N(CC(=O)NC3CCS(=O)(=O)C3)C2=O)cc1C (stereo not drawn),·,1.5,0.2,6.8,-5.2,·,-7.6%,·
O=C(CCc1ccccc1)NNC(=O)CCc1ccccc1,-14.6,4.1,0.6,-2.3,·,29.1,-3.1%,1.4
CC(C)(C)Cc1cc(N)on1,-5.6,·,0.3,·,-3.6,-1.6,-6.8%,6.2
CSc1nc(-c2ccc(Cl)cc2Cl)[nH]c(=O)c1C#N,-3.8,0.2,-0.3,-2.8,-0.3,6.2,·,-4.5

# Bioassay records as filed in PubChem BioAssay.
